# FGF22 binding: binders of human FGF22 protein, primary screen, FGF22 synaptogenesis inhibitor project, biophysical, thermal shift, single point; Fibroblast growth factor 22 (Homo sapiens), Q9HCT0; recombinant FGF22 thermal shift, SYPRO orange fluorescence; percent of sucrose octasulfate shift, DMSO zero; calls only at 9.99 µM; 1.5% of 340,000 active; AID 651658, 2012;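 active = melting point raised past a set limit in the mean and every replicate; three in four hits are not shown here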
# Target sequence (Q9HCT0 whole entry, looked up): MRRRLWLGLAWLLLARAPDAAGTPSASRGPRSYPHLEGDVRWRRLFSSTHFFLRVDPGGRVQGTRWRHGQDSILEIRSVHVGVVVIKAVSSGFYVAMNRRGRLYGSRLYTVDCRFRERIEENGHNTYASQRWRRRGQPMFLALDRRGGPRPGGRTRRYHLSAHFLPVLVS
# rRNA inh HTS: reduced GFP signal of wild-type E. coli, primary screen, bacterial rRNA inhibitor project, GFP/RFP fluorescence, OD600, single point | 1.6% of 350,000 active | AID 720706, 2013 | E. coli WT GFP vs humanized-ribosome RFP mutants, 24 h; stronger effect = lower value; DMSO median 0, no signal -100 | GFP signal change (wild-type ribosome), % (concentration not given with the values);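 active = significant combined selectivity score with lowered wild-type GFP, culture density cut under 30%, mutant RFP and density less affected; inactive = any of these conditions unmet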; also: one replicate is shown; some compounds called inactive have numbers as strong as hits
# MLL AF4-AF9 inh: inhibitors of AF4 peptide binding to AF9, primary screen, biochemical, AlphaScreen, biotin-AF4 peptide, FLAG-AF9, single point; inhibition, % at 10 µM; 0.47% of 350,000 active; Protein AF-9 (Homo sapiens), P42568;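 active = every replicate reaching a set inhibition limit, whatever the replicate mean, cut at about 25% in these data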;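 also: 0% = plate neutral control median and 100% = total signal loss; the record names both 10 and 1 µM as test concentration; the first replicate is given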
# Target sequence (P42568 whole entry, looked up): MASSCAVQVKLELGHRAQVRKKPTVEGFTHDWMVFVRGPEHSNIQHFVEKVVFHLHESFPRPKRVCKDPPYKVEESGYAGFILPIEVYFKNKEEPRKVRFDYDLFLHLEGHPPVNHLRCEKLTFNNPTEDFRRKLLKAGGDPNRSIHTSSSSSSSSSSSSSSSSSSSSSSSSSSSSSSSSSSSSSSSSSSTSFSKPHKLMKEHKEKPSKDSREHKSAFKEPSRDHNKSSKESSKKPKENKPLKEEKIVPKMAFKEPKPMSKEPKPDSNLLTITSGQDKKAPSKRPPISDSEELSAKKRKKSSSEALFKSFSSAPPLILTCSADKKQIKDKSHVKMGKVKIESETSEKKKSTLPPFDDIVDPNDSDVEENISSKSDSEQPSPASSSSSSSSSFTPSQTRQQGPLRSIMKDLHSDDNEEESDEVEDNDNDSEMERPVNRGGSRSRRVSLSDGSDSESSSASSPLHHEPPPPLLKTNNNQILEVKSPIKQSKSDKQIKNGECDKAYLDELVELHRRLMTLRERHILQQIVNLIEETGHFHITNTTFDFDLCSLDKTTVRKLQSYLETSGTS
# rRNA inh HTS OD600: further read-out of rRNA inh HTS, marked with its call; OD600 change, %; measured here: OD600 growth;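 optical density of the mix in the first replicate; 0 = DMSO median and -100 = no signal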
# rRNA inh HTS RFP: also measured in rRNA inh HTS; calls as there; RFP signal change, %; measured here: RFP humanized mutant strains;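 first replicate; 0 = DMSO median and -100 = no signal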
# Active calls of the source: *; i = inactive.
# Fields – FGF22 binding, rRNA inh HTS, rRNA inh HTS OD600, rRNA inh HTS RFP, MLL AF4-AF9 inh
CN(C)C(=O)C[C@H]1CC[C@H]2[C@@H](COc3ccc(NC(=O)C4CC4)cc3C(=O)N2C)O1
  i, 1, 4, -1.7, -1.1
C[C@@H]1CN([C@@H](C)CO)C(=O)Cc2cc(NC(=O)NC3CCCCC3)ccc2O[C@H]1CN(C)S(=O)(=O)c1ccc(Cl)cc1
  i, -1, -8, -1.7, 1.6
C[C@@H]1CN([C@@H](C)CO)C(=O)c2cc(NC(=O)Cc3cn(C)c4ccccc34)ccc2O[C@H]1CN(C)Cc1ccc(-c2ccccc2)cc1
  i, 7, 13, 1.0, -3.0
Cc1noc(C)c1NC(=O)N(C)C[C@@H]1Oc2c(NC(=O)C3CCCCC3)cccc2C(=O)N([C@H](C)CO)C[C@@H]1C
  i, 3, 5, -3.6, -3.2
C[C@H]1CN([C@@H](C)CO)S(=O)(=O)c2ccc(C#CCN(C)C)cc2O[C@H]1CN(C)C
  i, 1, 6, -2.5, -1.8
O=C(NC(=S)Nc1cccc(O)c1)C12CC3CC(CC(C3)C1)C2
  i, -63, -84, -21, 16
C[C@@H]1CN([C@H](C)CO)C(=O)c2cc(NC(=O)C3CCCCC3)ccc2O[C@H]1CN(C)S(=O)(=O)c1cn(C)cn1
  i, 5, 8, -1.2, 1.0
COc1ccccc1CNC(=O)C[C@@H]1CC[C@H]2[C@@H](COC[C@@H](O)CN2Cc2ccc3c(c2)OCO3)O1
  i, -4, -14, 1.5, -0.4
C[C@H]1CN([C@@H](C)CO)C(=O)c2cccc(NC(=O)C3CCOCC3)c2O[C@@H]1CN(C)S(=O)(=O)c1ccc(Cl)cc1
  i, 1, 5, 0.5, -8.3
CN(C)CCCNC(=O)C[C@@H]1CC[C@@H](NC(=O)c2ccccc2F)[C@H](CO)O1
  i, 3, -2, -0.8, 0.1
COc1ccc(NC(=O)C[C@H]2C(=O)N(CCc3ccccc3)C[C@@H]2c2ccc(OC)cc2)cc1
  i, -28, -44, -9.6, -0.2
CN1c2ccc(-c3cccc(C#N)c3)cc2[C@H]2[C@H](CCN2C(=O)CN2CCOCC2)[C@@H]1CO
  i, -2, 1, 3.2, -4.2
C[C@@H]1CN([C@H](C)CO)C(=O)c2cccc(NC(=O)C3CC3)c2O[C@@H]1CN(C)S(=O)(=O)c1cccs1
  i, -2, 13, -2.5, 1.4
C[C@@H]1CN([C@H](C)CO)C(=O)Cc2cc(NC(=O)NC3CCCCC3)ccc2O[C@@H]1CN(C)Cc1ccc(C(=O)Nc2ccccc2N)cc1
  i, -9, -10, 4.0, -1.6
COc1ccc2c3c(n(C)c2c1)[C@H](CO)N(C(=O)C1CCC1)CC31CN(C(=O)Nc2cccc(F)c2)C1
  i, -3, -13, 4.3, 0.4
C[C@H]1CN([C@@H](C)CO)S(=O)(=O)c2ccc(-c3ccncc3)cc2O[C@H]1CN(C)C(=O)CN(C)C
  i, 5, 3, -1.1, -4.6
CNC(=O)C[C@@H]1CC[C@@H]2[C@H](COc3ccc(NC(=O)NC4CCCC4)cc3C(=O)N2C)O1
  i, 1, 1, -0.2, -0.7
CC1(C(=O)NCCc2c[nH]c3ccccc23)CCN1CC1CCCCC1 (centres undefined)
  i, -23*, -3.6*, -1.8*, 6.4
CO[C@@H]1CN(C)C(=O)c2cc(NS(=O)(=O)CC(F)(F)F)ccc2OC[C@H](C)N(CCC(F)(F)F)C[C@@H]1C
  i, -3, -4, -1.6, -1.6
C[C@@H](NC(=O)C[C@H]1C[C@@H]2c3cc(NC(=O)c4cccnc4)ccc3O[C@@H]2[C@@H](CO)O1)c1ccccc1
  i, 2, 4, -0.3, 0.3
C[C@H](CO)N1C[C@H](C)[C@H](CN(C)C(=O)Nc2ccc3c(c2)OCO3)Oc2ccc(NC(=O)Cc3ccccc3)cc2C1=O
  i, 1, -5, 0.0, 0.2
CCCCC[C@H](C)N1C[C@H](COCc2ccccc2)Oc2cc(N3CC[C@@H](O)C3)ccc2S1(=O)=O
  i, -5, -7, -0.7, -1.9
C[C@@H]1CN([C@@H](C)CO)C(=O)c2cc(N(C)C)ccc2O[C@@H](C)CCCCO[C@@H]1CN(C)C(=O)Nc1ccc(F)cc1
  i, -1, 0, -2.2, -0.5
C/C=C/c1ccc([C@H]2[C@@H](CO)N(CC3CCOCC3)C23CN(S(=O)(=O)CC)C3)cc1
  i, -1, -3, -0.4, 0.9
C[C@@H]1CN([C@@H](C)CO)C(=O)Cc2cc(NC(=O)Cc3ccccc3)ccc2O[C@H]1CN(C)Cc1ccc(Cl)c(Cl)c1
  i, 4, 6, 2.9, 4.4
C[C@@H]1CN([C@H](C)CO)S(=O)(=O)c2ccc(C3=CCCCC3)cc2O[C@H]1CN(C)C(=O)C1CCC1
  i, -20, -38, 17, 2.9
C[C@@H]1CN([C@H](C)CO)C(=O)c2cc(NS(=O)(=O)c3cn(C)cn3)ccc2O[C@@H](C)CCCCO[C@H]1CN(C)C(=O)Nc1ccc2c(c1)OCO2
  i, -2, -6, -0.9, -1.3
CC(=O)Nc1ccc(NC(=O)COC(=O)c2ccc(S(=O)(=O)N(C)c3ccccc3)cc2)cc1
  i, 0, 2, 7.7, -0.6
O=C(C[C@H]1CC[C@@H]2[C@H](COC[C@H](O)CN2C(=O)Nc2ccc(C(F)(F)F)cc2)O1)NCCc1ccncc1
  i, -57, -80, -20, 1.2
O=c1oc(-c2ccc(Cl)cc2[N+](=O)[O-])nc2ccccc12
  i, -2, -4, -3.8, -1.6
COc1cccc(NC(=O)C[C@@H]2CC[C@@H]3[C@H](COc4ccc(NC(=O)C5CCCCC5)cc4C(=O)N3C)O2)c1
  i, -2, 2, 0.4, 2.7
O=C(c1ccc(F)cc1)N1CCCCN2[C@H](CO)[C@@H](c3ccc(C#CC4(O)CCCC4)cc3)[C@@H]2C1
  i, -4, -13, -4.3, -3.5
CC(C)NC(=O)N(C)C[C@@H]1Oc2ccc(NC(=O)Cn3cnnn3)cc2CC(=O)N([C@@H](C)CO)C[C@@H]1C
  i, 5, 13, -4.7, -2.6
COCC#Cc1ccc2c(c1)O[C@@H](CN(C)S(C)(=O)=O)[C@H](C)CN([C@H](C)CO)S2(=O)=O
  i, 1, -4, 0.1, 0.4
COc1cccc(-c2ccc3c(c2)O[C@@H](CN(C)C(C)=O)[C@H](C)CN([C@@H](C)CO)S3(=O)=O)c1
  i, -5, -17, -3.2, 0.5
COc1ccc(NC(=O)Nc2cccc3c2O[C@H](CN(C)CC2CCCCC2)[C@@H](C)CN([C@@H](C)CO)C3=O)cc1
  i, -3, -1, -2.0, 6.5
CCc1ccc(C(O)c2ncc(-c3cccc(F)c3)[nH]2)cc1 (centres undefined)
  i, -2, -10, 1.7, 2.2
COc1ccc(S(=O)(=O)Nc2ccc3c(c2)C(=O)N([C@@H](C)CO)C[C@H](C)[C@H](CN(C)C(=O)NC2CCCCC2)O3)cc1
  i, -2, -6, -0.5, -4.5
C[C@H]1CN([C@@H](C)CO)C(=O)c2cccc(NC(=O)CCCCCC(=O)Nc3ccccc3N)c2O[C@H]1CN(C)Cc1ccc(C(F)(F)F)cc1
  i, -2, -4, 1.2, -1.7
CC1(C)OC2COC(c3[nH]nc4c(=O)[nH]c(=O)[nH]c34)C2O1 (centres undefined)
  i, 16, 11, 0.8, 0.6
COc1ccc2oc(C(=O)OCC(=O)Nc3ccc(C)c(S(=O)(=O)N4CCOCC4)c3)c(C)c2c1
  i, -10, -14, 5.3, -0.7
C[C@@H]1CN([C@@H](C)CO)C(=O)c2cccc(NC(=O)C3CCCCC3)c2O[C@H]1CN(C)Cc1ccc(Oc2ccccc2)cc1
  i, -3, 4, -3.8, 0.7
CNC(=O)C[C@@H]1CC[C@H]2[C@@H](COC[C@H](O)CN2C(=O)Nc2ccc3c(c2)OCO3)O1
  i, 7, 6, -2.2, -1.1
CC1(c2nnnn2-c2ccc3c(c2)OCCO3)CCC(=O)N1CCOc1ccccc1 (centres undefined)
  i, 2, -1, -5.1, -3.4
CNC[C@H]1Oc2ccc(NS(C)(=O)=O)cc2C(=O)N([C@@H](C)CO)C[C@@H]1C
  i, -2, -2, 1.2, -3.8
CC(C)(C)CC(C)(C)N=C1Nc2cc(Cl)c(Cl)cc2NC12C[C@H]1CCC(=O)N3CC[C@@H](C2)[C@@H]13 (some centres undefined)
  i, 8, 7, 1.0, 7.9
O=C(N[C@@H]1CC[C@@H](CC(=O)N2CCN(c3ccccc3)CC2)O[C@H]1CO)c1ccccc1
  i, 2, 9, -1.9, -1.1
C[C@H]1CN([C@@H](C)CO)S(=O)(=O)c2ccc(/C=C/c3ccccc3)cc2O[C@@H]1CN(C)C(=O)NC1CCCCC1
  i, -4, 4, 0.3, 6.5
O=C(c1ccc(F)cc1)N1CCCCN2[C@@H](CO)[C@H](c3ccc(C#CC4(O)CCCC4)cc3)[C@@H]2C1
  i, 2, -6, 1.2, -0.7
COCC(=O)N(C)C[C@@H]1Oc2cc(C#CC(C)(C)O)ccc2S(=O)(=O)N([C@H](C)CO)C[C@H]1C
  i, 2, -4, -1.2, -2.1
COc1ccc(S(=O)(=O)Nc2ccc3c(c2)C(=O)N([C@H](C)CO)C[C@@H](C)[C@@H](CN(C)S(=O)(=O)c2ccc(C)cc2)OCCCC[C@H](C)O3)cc1
  i, 0, 5, -0.6, -1.3
C[C@H]1CN([C@@H](C)CO)C(=O)c2cc(NC(=O)Nc3ccc(C(F)(F)F)cc3)ccc2O[C@@H]1CN(C)Cc1ccc(C(=O)Nc2ccccc2N)cc1
  i, -2, -5, 0.3, -2.7
CC(C)C#Cc1ccc2c(c1)O[C@H](CN(C)Cc1cncnc1)[C@@H](C)CN([C@@H](C)CO)S2(=O)=O
  i, -11, -24, 3.6, 3.2
CCC(=O)Nc1ccc2c(c1)C(=O)N(C)C[C@H](OC)[C@H](C)CN(C(=O)C1CC1)[C@H](C)CO2
  i, 1, 4, -2.0, -0.5
CCc1cnc(N2[C@@H](C#N)[C@@H](c3ccccc3)[C@@H]2CO)s1
  i, 2, 10, -2.1, -0.4
CN1CCC2CC1c1cc(-c3ccc(C(F)(F)F)cc3)ccc12 (centres undefined)
  i, -1, -1, 1.1, -0.8
CCOC(=O)c1c(CN2CCNCC2)nc2ccc(Cl)cc2c1-c1ccccc1
  i, -23, -29, -9.1, -0.5
COCc1cccc(-c2csc(C(O)c3ccc(F)c(OC)c3)n2)c1 (centres undefined)
  i, -58, -76, -20, -1.7
C[C@@H]1CN([C@H](C)CO)C(=O)c2cccc(NC(=O)C3CCOCC3)c2O[C@@H]1CN(C)Cc1ccc(C(=O)Nc2ccccc2N)cc1
  i, 5, 12, -1.5, 4.2
COc1ccc(C(C#N)CC(=O)c2ccc(OC)c(OCc3ccccc3)c2)cc1OC (centres undefined)
  i, -4, 11, -4.6, 0.8
Cc1c(NC(=O)c2cccc(NC(=O)C(C)Oc3ccccc3)c2)c(=O)n(-c2ccccc2)n1C (centres undefined)
  i, -7, 4, -2.2, 0.4

# Screening results as filed in PubChem BioAssay.

# An excerpt; the hit share may differ from the screen's.
